# NPYLR7 agonist – agonists of mosquito NPYLR7 receptor, primary screen, cell-based, Aedes aegypti, calcium fluorescence, mosquito biting behavior. Aedes aegypti neuropeptide Y-like receptor 7 (NPYLR7). HEK293T NPYLR7/Galpha15, GCaMP6s calcium fluorescence. activation, % at 10 µM. 270,000 tested, 0.15% active. AID 1259423, 2018; in the data active = activation above about 40%;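 also: 0% = vehicle and 100% = reference agonist at the receptor; some compounds past the cut are filed as inactive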
# NPYLR7 agonist max-min – further read-out of NPYLR7 agonist, marked with its call; activation, %; measured here: Max-Min RFU normalised activation; some inactives read as strong as hits;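 span of the calcium signal over five minutes; 0% = vehicle and 100% = native peptide agonist; compound fluorescence can raise it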
# * hit, by the source's call; & = joins results of further samples.
smiles	NPYLR7 agonist	NPYLR7 agonist max-min
CC(C)N1C(=O)C2ON(c3ccc(Cl)cc3)C(c3cccc([N+](=O)[O-])c3)C2C1=O (stereo not given)	-5	-8
CCCCCOc1ccc(C(=O)NC(C)CC(C)C)cc1OCCCCC (stereo not given)	-8	-17
Cc1cc(C)cc(NC(=O)CC(NCCCOC(C)C)C(=O)O)c1 (stereo not given)	0	-1
COCC(C)NC(=O)c1cc(N2CCN(c3ccc(OC)cc3)CC2)nc2ccccc12 (stereo not given)	5	0
COc1cccc(Cn2c(=O)c(C(=O)N3CCOCC3)nn(-c3cc(C)cc(C)c3)c2=O)c1	-1	6
CCC(=O)N1CCN(C(=O)C(NC(=O)c2ccccc2OC)S(=O)(=O)c2ccccc2)CC1 (stereo not given)	4	3
O=C(CCC1CCN(C(=O)CCn2cccn2)CC1)Nc1ccc(F)c(Cl)c1	5	3
CN(CCCN1C(=O)CC2(C1=O)C(=O)N(Cc1ccccc1)c1ccc(Cl)cc12)S(C)(=O)=O (stereo not given)	-2	-13
O=C(Nc1ccccc1C(=O)N1CCCC1)c1ccc2ccccc2c1	-2	-5
CN(CCO)c1ccc(F)cc1S(=O)(=O)C(F)(F)F	-4	-3
COC(=O)C1C2C=CC3(CN(Cc4cccs4)C(=O)C13)O2 (stereo not given)	0	-1
CCN(CC)CCN1CCN(c2cc(-c3ccccc3Oc3ccccc3)ncn2)CC1	13	9

# Entries shown so far containing a Cl atom (3):
smiles	NPYLR7 agonist	NPYLR7 agonist max-min
CC(C)N1C(=O)C2ON(c3ccc(Cl)cc3)C(c3cccc([N+](=O)[O-])c3)C2C1=O (stereo not given)	-5	-8
O=C(CCC1CCN(C(=O)CCn2cccn2)CC1)Nc1ccc(F)c(Cl)c1	5	3
CN(CCCN1C(=O)CC2(C1=O)C(=O)N(Cc1ccccc1)c1ccc(Cl)cc12)S(C)(=O)=O (stereo not given)	-2	-13

# (continued)
smiles	NPYLR7 agonist	NPYLR7 agonist max-min
O=C(COc1ccc2cc(Br)ccc2c1)N1N=C(C(F)F)CC1(O)C(F)F (stereo not given)	6	6
CCCCCc1ccc(-c2ccc(C(=O)Nc3ccc(Cl)c4c3C(=O)c3ccccc3C4=O)cc2)cc1	10	13
CNC(=O)[C@@H]1[C@@H](c2ccccc2)CN2CCN(C(=O)c3ccccc3)C[C@H]12	2	14
CCCCCN(Cc1nc(C(=O)OCC)cs1)C(=O)Nc1ccc(C)cc1	-6	-1
N=C1C2=C3Sc4ccccc4N3CCCC2=NN1c1ccc(Cl)cc1	12&2	8&-3
CC(=O)Nc1nc2nc(C(F)(F)F)cc(=O)n2[nH]1	-6	-10
Cc1ccc(S(=O)(=O)N(CCO)c2ccc(C#N)cc2)c(F)c1	6	3
O=C(NS(=O)(=O)N1CCCc2ccccc21)C1CSCN1C(=O)C1CCC1 (stereo not given)	5	3
CNC(=O)CSc1nc(-c2ccccc2)c(NC(=O)C(C)C)s1	-6	-12
Cc1cc(C)n2c(C(=O)NC(C)C3=CCCCC3)nnc2n1 (stereo not given)	13	4
CN(C)c1ccc(CNC(=O)c2cn(CC(=O)N3CCCC3)nn2)cc1	2	-2
NCc1ccccc1CS(=O)(=O)N1CCCCC1	2	1

# Compound profiles, as listed above.
# N=C1C2=C3Sc4ccccc4N3CCCC2=NN1c1ccc(Cl)cc1 reads NPYLR7 agonist: 12&2; NPYLR7 agonist max-min: 8&-3
# O=C(NS(=O)(=O)N1CCCc2ccccc21)C1CSCN1C(=O)C1CCC1 (stereo not given) reads NPYLR7 agonist: 5; NPYLR7 agonist max-min: 3
# CC(=O)Nc1nc2nc(C(F)(F)F)cc(=O)n2[nH]1 reads NPYLR7 agonist: -6; NPYLR7 agonist max-min: -10

# Remaining list, next part:
smiles	NPYLR7 agonist	NPYLR7 agonist max-min
CC(C)NS(=O)(=O)c1ccc(Cl)c(C(=O)NC(C)(C)CC(C)(C)C)c1	6	7
Cc1ccc(Cc2nsc(N3CCN(C(=O)CSc4ccccc4)C(C)C3)n2)cc1 (stereo not given)	8	18
Cc1ccc(NC(=O)C2CCCN2S(=O)(=O)c2c(C)noc2C)c(C)c1 (stereo not given)	0	-1
COc1ccc(F)c(CC2(CCC(=O)N3CCN(Cc4ccccc4OC)CC3)CCC(=O)N2)c1 (stereo not given)	13	6
COCCN=c1scc(-c2ccccc2Br)n1N=Cc1ccc2c(c1)OCO2	4	2
Cc1c([N+](=O)[O-])c([N+](=O)[O-])nn1CC(=O)Nc1cccc(O)c1	3	0
CN1CCN(c2ccc(Nc3nccc4[nH]c(-c5ccc(C(=O)N(C)C)cc5)cc34)cc2)CC1	20	9
CC(C)=CC(=O)NCC1CCCN(Cc2nccn2C(C)C)C1 (stereo not given)	2	1
O=S(=O)(c1ccccc1)C1(c2n[nH]c(CCc3ccccc3)n2)CC1	-9	-12
O=C(CSc1nnc2c(n1)[nH]c1ccccc12)C1CC1	20	15
CN=c1scc(-c2ccc3[nH]c(=O)oc3c2)n1C	5	5
C=CCNc1oc(-c2ccc(F)cc2)nc1C#N	12	10
CC(CNC(=O)c1n[nH]c2ccccc12)N(C)c1ccccc1 (stereo not given)	-1	-6
O=c1c2c3c(sc2nc2n1CCCC2)CCCCC3	7	1
Cc1ccc(NC(=O)N2CCC(C(NC(=O)c3ccc(C)cc3)C(=O)N3CCOCC3)CC2)cc1 (stereo not given)	-1	14
CCC(C)N(Cc1cccc(OS(=O)(=O)c2ccc(OC)cc2)c1)C(=O)Nc1ccccc1OC (stereo not given)	9	6
COC(=O)c1ccc(CN(C)S(=O)(=O)N2CC(C)OC(C)C2)cc1 (stereo not given)	4	3
Cc1cccc(NC(=O)CC2S/C(=N/N=C\c3cccc(O)c3)NC2=O)c1C (stereo not given)	2	2
CCCC(CCC)C(=O)NCCc1cc2ccc(C)c(C)c2[nH]c1=O	2	-2
CCC(Cl)C(=O)N1CCc2c([nH]c3ccc(OC)cc23)C1c1ccc(-c2ccccc2C(F)(F)F)o1 (stereo not given)	16	1
N#Cc1c(N)n(-c2cccc(Cl)c2)c2nc3ccccc3nc12	2	23
CC(C)C(NS(C)(=O)=O)c1ccc(F)cc1F (stereo not given)	-22	-26
CC1CCCCN1CCCNC(=O)c1ccc(-c2cc(-c3cccc4ccccc34)[nH]n2)cc1 (stereo not given)	25	9
CC1CCCN(CCNC(=O)c2ccn(-c3cccc(F)c3)n2)C1 (stereo not given)	6	6
O=C1C2C3CCC(O3)C2C(=O)N1Cc1ccncc1 (stereo not given)	3	0
Cc1nc(CNC(=O)N2CCC(CSc3ccccc3)C2)oc1C (stereo not given)	-1	-11
O=C(c1ccccc1)N1CCc2ccc([N+](=O)[O-])cc2C1	-5	-2
CC(=O)c1cccc(NC(=O)N2CCN(C(c3ccccc3)c3ccccc3)CC2)c1	-11	-16
Cc1cc(C)nc(SCc2cc(=O)c(OC(=O)COc3ccccc3F)co2)n1	-10	-8
CNC(=O)C1CCN(C(=O)Cn2ccc(C(F)(F)F)n2)CC1	7	3
CN(Cc1ccc(Br)o1)C(=O)c1ncccc1O	7	3
COc1ccc(OCCS(=O)(=O)Nc2cccnc2OC)cc1	6	3
CCc1nc2n(n1)C(=O)C(C(c1ccccc1)N1CCCC1)S2 (stereo not given)	-1	5
OCCC1CN(Cc2ccc3cc(F)ccc3n2)CCN1Cc1ccsc1 (stereo not given)	3	-2
COc1ccc(OC)c(NC(=S)NCCCN2CCOCC2)c1	-6	-13
CC(C)c1ccc(-c2noc(Cn3nc(-c4ccco4)oc3=O)n2)cc1	2	9
CN(C)S(=O)(=O)N1CCN(c2nc3ccccc3o2)CC1	1	-2
CCOc1ccc(C2CC(c3ccccc3Cl)=NN2C(=O)CN(C)C2CCCCC2)cc1 (stereo not given)	-13	-9
CCOC(=O)N1CCN(C(=O)c2c(F)c(F)c3c(c2F)N(CC2CCCO2)CCS3(=O)=O)CC1 (stereo not given)	3	38
CCc1nccn1CCC(=O)N1CCCC2(C=Cc3ccccc3O2)CC1 (stereo not given)	-2	-3
Cn1cnnc1SCc1cc(=O)c(OC(=O)c2cccc(F)c2)co1	3	-1
COc1ccccc1C(=O)C1CCCN(C(=O)c2ccc(Cl)cc2)C1 (stereo not given)	2	3
CCCCc1ccc(NC(=O)Nc2cn(C)c3ccccc23)cc1	0	-5
CN(C)C(=O)c1cc(=O)[nH]c2ccc(S(=O)(=O)Nc3ccc(F)cc3)cc12	7	6
CC(C)=CC1C(C(=O)N2CSCC2C(=O)NC(C)(C)C)C1(C)C (stereo not given)	-7	-8
CC1Oc2c(C(=O)NCc3ccncc3)cccc2C1C (stereo not given)	13	5
COCC(=O)Nc1ccc(-c2c(-c3ccc4c(c3)OCO4)nn(-c3ccc(F)cc3)c2OC(C)=O)cc1	-3	-4
Cc1ccc(-c2nc(CN3C[C@@H](C)NC[C@@H]3C)c(C)o2)s1	13	6
CC1CCCC(NS(=O)(=O)C2=Cc3ccccc3CC2)C1C (stereo not given)	-1	0
COc1ccccc1Oc1cc(N2CCC(Cc3ccccc3)CC2)ncn1	9	12
CCOC(=O)c1sc(NC(=O)c2ccc3c(c2)NC(=O)CS3)cc1C	14	5
Cc1cccc(CNC(=O)[C@@H]2C[C@@H](N)CN2)c1	1	-4
O=C(CC(c1ccccc1)c1ccco1)N1CC(n2cccn2)C1 (stereo not given)	4	-6
Cc1nnc(SCc2cc(=O)[nH]c(N=C(N)Nc3ccccc3Sc3ccccc3)n2)s1	3	3
CC(C)N1CCc2nc(SCC(=O)Nc3ccc(F)cc3)[nH]c(=O)c2C1	-18	-17
Cc1cccc(S(=O)(=O)NC(=O)C2(C)CCN2C(=O)Cc2cccc3ccccc23)c1 (stereo not given)	0	-4
Cc1ccc2nc(N(CCCN(C)C)C(=O)c3cccc(S(C)(=O)=O)c3)sc2c1	-5	-6
CCOCC(=O)Nc1cc(-c2cn3nc(OC)ccc3n2)ccc1C	-6	-12
NCCc1cccc(-c2cc(NCCO)nc3[nH]ccc23)c1	3	-1
CCCN(CC(=O)N(CCOC)Cc1cccn1C)C(=O)c1ccccc1Cl	-2	8

# Next part:
smiles	NPYLR7 agonist	NPYLR7 agonist max-min
CSCC(=O)N1CCC2(CCCN(CC3CCC3)C2=O)C1 (stereo not given)	5	0
CCOC(=O)c1cc2ccccc2n1CC#N	2	1
CC(CNc1nccn(-c2ccccc2)c1=O)c1ccccc1 (stereo not given)	2	-3
CC(NS(=O)(=O)N(C)C1CCCCC1)c1cc(F)ccc1F (stereo not given)	3	-2
c1ccc(Oc2ccc(-c3nc(-c4ccccc4)nc4ccccc34)cc2)cc1	0	-8
Cc1cccc(-n2ncc(C(=O)O)c2-c2ccccc2)c1	-2	0
Cc1ccc(OCC2c3ccsc3CCN2C(=O)CN(Cc2ccco2)C(=O)Cc2ccccc2)cc1 (stereo not given)	-3	2
CC(=O)Nc1ccc(CN(C)Cc2snnc2C)cc1	1	-1
CC(C)NCC(O)c1ccc2ccccc2c1 (stereo not given)	-14&12&-6	-14&-5&-11
COc1ccccc1/C=C/C=C1/N=C(c2cc([N+](=O)[O-])ccc2OC)OC1=O	-2	-5
Cc1sc2ccccc2[n+]1CCCS(=O)(=O)O	5	5
CCOC(=O)c1cccc(N(CC)Cc2nc(C)c(C)o2)c1	3	3
Cc1nc(NC(=O)Cc2cccc(C(F)(F)F)c2)sc1C	9	4
COc1nccnc1NCCc1cc(=O)[nH]c(C23CC4CC(CC(C4)C2)C3)n1	10	0
Cc1cc(C(=O)N2CCN(C3c4ccccc4CCc4ccccc43)CC2)n(C)n1	-7	-11
Cc1cc(C)n(CCC(=O)NC(C)Cc2cnccn2)c(=O)n1 (stereo not given)	-5	-6
C=CCC(O)(CC=C)c1ccc(CN(CCC)Cc2ccccc2F)o1	-3	2
c1ccc(-c2n[nH]c(-c3ccccn3)n2)nc1	0	8
Cc1ccc(CN(CCc2c[nH]c3ccccc23)C(=O)CN(C(=O)c2ccccc2C)C2CC2)cc1	4	7
COC(=O)c1ccc(Cn2nc(-c3ccco3)c3sc(N4CCCCC4)nc3c2=O)cc1	0	-4
CCOC(=O)C(C)Sc1nc2cc(S(=O)(=O)N3CCCC(C)C3)ccc2n1CC1CCCO1 (stereo not given)	5	-5
CCC(CN1CCCC1)NC(=O)C1CCCN(C(=O)C(C)(C)C)C1 (stereo not given)	10	6
COc1ccc(NC(=O)CCCc2cccs2)cc1S(=O)(=O)N1CCCCC1	-17	-16
CCN(Cc1nc(COC)no1)C(=O)c1cc(-c2ccccc2)nn1C	2	-10
Cc1nn2cc(CNC(=O)c3ccc(C#CC(C)(C)O)o3)nc2s1	0	1
CCOC(=O)C1(Cc2ccccc2C(F)(F)F)CCN(C(=O)c2ccccn2)CC1	10	4
NC(=O)CN(C1CCCC1)S(=O)(=O)c1cccc(OC(F)(F)F)c1	1	-2
Cc1ccc(NC(=O)c2ccc(C)c(S(=O)(=O)NC3CCCCC3)c2)cc1	5	11
N=c1oc2ccccc2cc1C(=O)Nc1cccc(C(F)(F)F)c1	-4	-10
CC(C)CN1CC(O)CN(C(=O)COc2ccccc2)CC1=O (stereo not given)	25	27
CCCC(=O)Nc1oc2c(C)cccc2c(=O)c1-c1ccc2c(c1)OCO2	5	1
COc1ccc(OC)c(-c2nc(Cn3cc(CCO)cn3)c(C)o2)c1	15	6
Cc1ccn2cc(CNS(=O)(=O)N3CC(C)CC(C)C3)nc2c1 (stereo not given)	8	6
O=C(CCc1ccccc1)N1CCCC(OCc2ccc(F)cc2F)C1 (stereo not given)	-4	-4

# Compound activity (PubChem BioAssay)

# These rows are one share of the data; rates above refer to the full screens.
